NPYLR7 agonist: activates Aedes aegypti NPYLR7 receptor | activation, % at 10 µM | 0.15% of 270,000 active | HEK293T NPYLR7/Galpha15, GCaMP6s calcium fluorescence; in the data active = activation above about 40%;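 also: 0% = vehicle and 100% = reference agonist at the receptor; some compounds past the cut are filed as inactive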
NPYLR7 agonist max-min: further read-out of NPYLR7 agonist, marked with its call; activation, %; measured here: Max-Min RFU normalised activation; some inactives read as strong as hits;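 span of the calcium signal over five minutes; 0% = vehicle and 100% = native peptide agonist; compound fluorescence can raise it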
* hit, by the source's call; & = joins results of further samples. Some of the compounds tested; the hit share may differ from the screen's.

SMILES	NPYLR7 agonist	NPYLR7 agonist max-min
COC(=O)[C@@H]1Cc2ncn(Cc3ccccc3)c2CN1S(=O)(=O)c1cccc2c(N(C)C)cccc12	-8.0	-14.7
Cc1cc(C)c(CSCc2ccc(C(=O)N3C4CCC3CC(Oc3cccc(C#N)c3)C4)cc2)c(C)c1 (stereo unspecified)	1.8	-8.1
Cc1cc(CSCC(=O)Nc2ccc(F)cc2F)no1	-2.3	-4.7
Cc1ccc(S(=O)(=O)N2CCNCC2)s1	-2.3	4.0
O=C(CCS(=O)(=O)c1cccs1)NC1CCCCC1	0.1	0.4
COc1ncccc1C(=O)NC(C)c1cnc(-c2ccncc2)nc1C (stereo unspecified)	-0.9	-2.3
CCCN(Cc1nccn1C)C(=O)c1cnc(CC)nc1	3.2	30.7
COc1ccccc1Cc1nc2c(c(=O)[nH]1)CN(CC(O)COC(C)(C)C)CC2 (stereo unspecified)	3.1	14.0
CC(C)(C)NC(=O)CCN1CCC(CN2CCOCC2)C1 (stereo unspecified)	7.5	7.3
CC(C)c1nc(CN(C)Cc2coc3ccccc3c2=O)cs1	-2.5	-9.2
CN1CC2(CCCN(C(=O)c3ccccc3-c3ncc[nH]3)CC2)OC1=O (stereo unspecified)	3.6	2.2
CCn1c(C2CCN(C(=O)C(C)Nc3c(C)cccc3C)CC2)n[nH]c1=O (stereo unspecified)	3.7	1.6
Cc1nn(-c2ccccc2)c2[nH]cc(C(=O)Nc3ccc(N(C)C)cc3)c(=O)c12	-0.9	23.4
Cn1c(SCC(=O)NC(N)=O)nnc1C(F)(F)F	2.6	9.6
CCCCCCCC(=O)NCC1CCN(c2nc(Cc3cccc(OC)c3)ns2)CC1	-5.0	-0.6
CC1(C(=O)O)CCCN1C(=O)c1ccco1 (stereo unspecified)	-0.3	-2.9
Nc1nccc(-c2cccc3ccnn23)n1	8.4	2.7
CC(Nc1ccc2nnnn2n1)C1CC2CCC1C2 (stereo unspecified)	1.8	2.9
CCCc1[nH][nH]c(=O)c1C(c1cccc(Cl)c1)C(C#N)C#N (stereo unspecified)	-8.7	-8.5
CCCCCCC(=O)OC1CC(C)(C)NC(C)(C)C1	1.6	20.5
CCC(C)NC(N)=NCC1(c2cccc(Cl)c2)CCCC1 (stereo unspecified)	0.8	3.4
COc1ccc(-c2cc(C(=O)NC3CCCCC3)n(-c3cccc([N+](=O)[O-])c3)n2)c(OC)c1	-1.0	7.6
CCCCn1c(=O)[nH]c(=O)c2c1nc(COC(=O)CCC1CCCC1)n2CC	4.9	5.0
Nc1nc(Nc2ccccc2)nc(Nc2cccc(F)c2)c1[N+](=O)[O-]	12.1	6.4
N#Cc1c(NC(=O)CSc2ncc3ccccn23)sc2c1CCC2	4.6	3.9
CN1C(=O)C2(CCN(S(=O)(=O)N(C)C)CC2)c2ccccc21	1.7	-1.6
CCOC(=O)c1[nH]ncc1CN1CCCC(N2CCN(c3ccccc3OC)CC2)C1 (stereo unspecified)	21.2	5.5
O=C(NCc1ccc2c(c1)OCO2)c1cc2n(n1)CCN(Cc1ccc(F)cc1)C2=O	14.3	16.3
CO[C@H](C(=O)N1C[C@H]2C[C@H](C1)[C@@H]1CCCC(=O)N1C2)c1ccccc1	-0.1	26.9
COC(=O)Cn1c(CN2CCN(c3ccccc3F)CC2)nc2c1c(=O)n(C)c(=O)n2C	6.5	2.7
CCn1cc(NC(=O)C2CCCc3ccccc32)ccc1=O (stereo unspecified)	-0.4	-1.6
CCN(CC)CCn1c2c(c(SCC(=O)Nc3nc4ccccc4s3)nc1=O)CCC2	-1.2	-2.7
O=C(COCc1ccccc1)N1CCN(c2nc(Cc3ccccc3)nc3c2cnn3-c2ccccc2)CC1	-1.4	-0.4
CC(NC(=O)c1sc(=S)n(-c2ccccc2)c1N)c1ccccc1 (stereo unspecified)	12.4	5.9
Cc1nc(-n2nc(-c3ccco3)cc2NC(=O)c2ccc(Cl)cc2)[nH]c(=O)c1C	1.7	-0.7
CCc1nc2n(n1)C(=O)C(C(c1ccccc1Cl)N1CCC(C)CC1)S2 (stereo unspecified)	-0.9	39.7
CC(=O)c1c[nH]c(C(=O)NCC(O)c2ccc(Cl)cc2Cl)c1 (stereo unspecified)	8.3	4.1
CCn1c(C(=O)NCc2c(C)noc2C)cc2ccccc21	-0.8	-0.6
O=c1[nH]cnc2c1c(-c1ccccc1)cn2-c1ccccc1	-6.0	-11.2
Cn1cnc([N+](=O)[O-])c1NC1CCCCCC1	6.2	11.5
CN(Cc1ccccc1)c1onc(-c2ccccc2)c1CNCc1ccco1	27.3	27.2
Oc1cc(O)c2c(c1)O[C@H](c1ccc(O)c(O)c1)[C@@H](O)C2	-1.4&5.4	-5.1&-9.8
CCCC(=O)OCC(O)CN(Cc1ccco1)Cc1ccc(C)s1 (stereo unspecified)	24.5	30.5
Cc1cccc(-n2c(-c3ccc(Cl)cc3)cc(C(=O)NCCCN3CCCCC3C)c2C)c1 (stereo unspecified)	-9.3	-14.8
CCCc1nc(C)c(C(=O)NCC(C)N2CCc3ccccc32)s1 (stereo unspecified)	10.5	6.8

2 of the compounds above, bar-delimited:
SMILES | NPYLR7 agonist | NPYLR7 agonist max-min
Cc1ccc(S(=O)(=O)N2CCNCC2)s1 | -2.3 | 4.0
O=C(CCS(=O)(=O)c1cccs1)NC1CCCCC1 | 0.1 | 0.4

Looked up by compound from the list above, 4 records:
SMILES	NPYLR7 agonist	NPYLR7 agonist max-min
CCc1nc2n(n1)C(=O)C(C(c1ccccc1Cl)N1CCC(C)CC1)S2 (stereo unspecified)	-0.9	39.7
CCn1c(C(=O)NCc2c(C)noc2C)cc2ccccc21	-0.8	-0.6
CCCc1nc(C)c(C(=O)NCC(C)N2CCc3ccccc32)s1 (stereo unspecified)	10.5	6.8
CC(=O)c1c[nH]c(C(=O)NCC(O)c2ccc(Cl)cc2Cl)c1 (stereo unspecified)	8.3	4.1

New compounds follow
SMILES	NPYLR7 agonist	NPYLR7 agonist max-min
COC(=O)c1ccc(OCCOc2ccccc2OC)cc1	-6.5	12.9
Cc1cc(C)n2nc(CC(=O)NC(C)c3ccccc3-n3cccn3)nc2n1 (stereo unspecified)	-2.0	-2.9
OCCN(CCO)CC1CC2C=CC1C2 (stereo unspecified)	-28.4	-31.6
Cc1ccc(CN2CCN(Cc3cccn3-c3ccccn3)CC2CCO)o1 (stereo unspecified)	6.8	-3.7
O=C(Nc1ccccc1)N1CCC(c2nnc(C3CC3)s2)CC1	-2.5	-3.1
Cc1nc(C(=O)N2CCSCC2c2ccccc2)c2n1CCCC2 (stereo unspecified)	2.6	-0.5
CCOCc1ccc(CNC(=O)C(NCC(F)(F)F)C(C)C)cc1 (stereo unspecified)	7.3	4.8
CCOCCCNC(=O)CSc1nnc(-c2ccc(OC)cc2)n1CC	12.7	2.0
C=CCN(Cc1nccn1Cc1ccc(Cl)c(Cl)c1)C(=O)c1cccc(OC)c1	4.9	15.4
CC(C)N(CCN1CCCCCC1)Cc1ccc(C(=O)O)cc1	1.8	-1.7
CCCCOc1ccc(C(=O)NCc2nnc(SCc3cccc(OC)c3)n2-c2cc(Cl)ccc2C)cc1	1.9	6.1
COCc1nc2nccc(-c3cccc4ccccc34)n2n1	-11.9	-17.9
C=CCn1c(SCc2c(F)ccc(C)c2Cl)nnc1-c1cc(-c2cc(OC)c(OC)c(OC)c2)nc2ccccc12	-4.0	-5.7
CCOC(=O)c1ccc2c(c1)nc(SCc1cc(OC)cc(OC)c1)n2CCCOC(C)C	16.0	6.0
CC1(C)CC2CC(C)(CN2C(=O)c2cc(-c3ccc(F)cc3)nn2-c2ccc([N+](=O)[O-])cc2)C1 (stereo unspecified)	-13.4	-4.4
CCN(CC)C(CNC(=O)C1Cc2ccccc2S1)c1ccccc1 (stereo unspecified)	1.9	-2.2
CCc1ccc(-n2nnc(C(=O)OCc3nc(-c4ccc(OC)cc4OC)oc3C)c2C)cc1	-3.5	-8.1
CCn1nnc2c(NCCC3=CCCCC3)ncnc21	12.2	9.8
O=C(CSc1nc(=O)n(CC2CCCO2)c2c1CCC2)Nc1ccc([N+](=O)[O-])cc1 (stereo unspecified)	-4.9	-9.5
CN(C)CCSc1nnc2c(n1)[nH]c1ccccc12	0.0	-1.2
Cc1cc(NC(=O)c2ccco2)n(-c2nc(C)c(C)c(=O)[nH]2)n1	4.6	2.9
O=C(/C(=C/c1ccccc1)c1ccccc1)N1CCCC1c1nnc2c(C(F)(F)F)cccn12 (stereo unspecified)	29.2	9.7
CN(Cc1ccccc1)c1nc2c(c(=O)[nH]c(=O)n2C)n1CCCc1ccccc1	4.8	1.4
CC(C)c1ccccc1N1C(=O)CSC1c1ccccc1NC(=O)c1ccco1 (stereo unspecified)	24.7	36.5
O=C(c1cccnc1)N1CCN(c2ccc(Cl)cc2)CC1	-9.8	-16.6
COc1cccc(Cc2nc3c(c(=O)[nH]2)CN(C(=O)Nc2ccccc2OC)CC3)c1	4.8	13.7
C=CCn1c(CSc2ccc(C)cc2)n[nH]c1=S	-1.5	-3.5
COc1ccc(C2c3cccn3-c3ccccc3N2C(=O)CN(C(=O)c2cc(C(F)(F)F)cc(C(F)(F)F)c2)C2CC2)cc1 (stereo unspecified)	-10.9	-1.8
CCNC(=O)N(CCOC)Cc1ccc(OS(=O)(=O)C(C)C)cc1	18.3	27.6
O=C(NC(Cc1ccccc1)C1CC1)c1cc(Br)c[nH]1 (stereo unspecified)	-1.8	-3.7
CCOCCOc1nc(-c2ccccc2C)n(-c2ccc(NCC(O)Cc3ccccc3)cc2)n1 (stereo unspecified)	3.5	5.9
CCS(=O)(=O)Oc1ccc(-c2nc3ccccc3o2)cc1	2.6	7.1
CC1(C(=O)NCc2ccco2)CCN1C(=O)CCc1cccs1 (stereo unspecified)	8.1	5.8
Cc1cc(C)nc(SCc2cc(=O)c(OC(=O)Cc3ccccc3)co2)n1	-13.5	-12.8
NC(=O)Nc1ccc(C(=O)OCc2ccc(Br)cc2F)cc1	5.3	2.2
Cc1cccc(Cn2c(C)c(N3CCOCC3)c(C)c2C(=O)N(C)Cc2ccccc2)c1	5.1	15.4
COc1ccc(NC(=O)C2CC(=O)N(Cc3ccccc3)C(=Nc3ccc(F)cc3)S2)cc1 (stereo unspecified)	0.4	-3.1
O=C(c1ccc2c(c1)OCO2)N1CCN(c2nc3nccc(-c4ccc(Cl)c(Cl)c4)n3n2)CC1	27.2	13.7
O=C(NCc1ccccc1)N1[C@@H](c2ccco2)[C@@H](CO)C[C@]12CCCCN(CCO)C2=O	1.9	8.0
CN1CC2(CCCN(Cc3cc(C4CCCCC4)no3)CC2)OC1=O (stereo unspecified)	6.1	1.9
CCOC(=O)C1(CCOC)CCN(Cc2ccc(C#CCCO)cc2)CC1	-6.3	-12.0
CC1CCN(C(=O)c2ccc3c(c2)CCCN3S(C)(=O)=O)CC1	2.5	-1.9
CCc1ccc(N2CC(C(=O)OCC(=O)c3ccc([N+](=O)[O-])cc3)CC2=O)cc1 (stereo unspecified)	-7.7	-10.1
CC1(C)CN(C(=O)c2cn(CC3CCCNC3)nn2)CCO1 (stereo unspecified)	3.2	2.3
O=C(NC(C1CC1)C1CC1)C1CC(c2ccc(Cl)s2)=NO1 (stereo unspecified)	2.9	0.3
CC(C)(C1NCCc2[nH]cnc21)N1CCOCC1 (stereo unspecified)	16.4	5.8
N#Cc1cc([N+](=O)[O-])ccc1NC1CCCC1	0.9	-1.2
CC(C)(C)c1cnc(CNc2cccc3c2OCCO3)o1	3.8	1.7
COc1nc(OC)nc(-c2ccc(C(C)N3CCOCC3)cc2)n1 (stereo unspecified)	1.9	-1.7
Cc1cc2n(n1)SC(Nc1ccc(F)c(Cl)c1)N2 (stereo unspecified)	8.8	8.3
Cc1ccccc1CC(=O)N1CCOC(Cc2ccccc2)C1 (stereo unspecified)	24.8	13.4
CCCCCCCC(=O)N1CCN(c2cc(Cl)nc(SCC(=O)NC3CCN(Cc4ccccc4)CC3)n2)CC1C (stereo unspecified)	-0.7	14.4
CN(Cc1ccccc1CN1CCCC1)c1ncnc2[nH]ccc12	0.7	-0.2
O=C(C1CCC(=O)N(C2CCCC2)C1)N1CCCCCCC1 (stereo unspecified)	1.9	-0.2
Cc1ccc(NC(=O)c2cc(=O)c(OCc3ccccc3)c[nH]2)cc1C	0.9	-2.0
O=C(Oc1ccc2oc(=O)sc2c1)C1CCCCC1	-3.1	-7.2
CC(C)(CNC(C(=O)NC(N)=O)c1ccccc1)N1CCOCC1 (stereo unspecified)	1.3	0.8
CC1CC(C)(C)N(C(=O)CN2C(=O)c3ccccc3C2=O)c2ccccc21 (stereo unspecified)	-16.8	-19.7
CC(NC(=O)c1cn2cccnc2n1)C12CC3CC(CC(C3)C1)C2 (stereo unspecified)	0.9&11.2	-0.6&8.0
CCOC(=O)c1c(C)[nH]c(C(=O)N(C)C)c1C	21.6	8.5
(list continues)
SMILES	NPYLR7 agonist	NPYLR7 agonist max-min
O=C(O)C1COC2(CCCCC2)N1C(=O)c1cccc(Cl)c1 (stereo unspecified)	11.2	10.3
Cc1oc(-c2ccc(C(F)(F)F)cc2)nc1CN(CCO)C(C)C	5.9	3.8
CN(Cc1ccc(Cl)s1)Cn1cnnc1C#N	10.4	13.9
CCCCN(CCC(=O)NC1CCN(Cc2ccccc2)CC1)c1nc(Cc2cccc(OC)c2)ns1	-9.4	-14.9
COc1ccc(S(=O)(=O)N(C)CCc2ccccc2)cc1N1CCN(C(=O)c2ccno2)CC1	2.3	-7.2
CCNC(=O)N(Cc1ccc2c(c1)OCO2)Cc1c(-c2ccccc2)noc1N(CC)CC	-3.1	23.5
COc1ccc(-n2ncc(Oc3ccc(Cl)cc3)c(Nc3cccc(C(=O)N4CCCCC4)c3)c2=O)cc1	5.5	1.0
Cc1ccc(NC(=O)c2cc3ccccc3oc2=O)c(Br)c1	-0.8	6.5
Cc1ccc(N2C(=O)CSC2c2ccccc2NC(=O)c2cccc(F)c2)c(C)c1 (stereo unspecified)	-1.3	0.6

Single records, as listed above:
`CN(Cc1ccc(Cl)s1)Cn1cnnc1C#N` is entered as NPYLR7 agonist: 10.4; NPYLR7 agonist max-min: 13.9
`COc1ccc(-n2ncc(Oc3ccc(Cl)cc3)c(Nc3cccc(C(=O)N4CCCCC4)c3)c2=O)cc1` is entered as NPYLR7 agonist: 5.5; NPYLR7 agonist max-min: 1.0
